Screening data as filed in PubChem.
HSV replic up: HSV replication enhancement; AID 1956; hit rate 0.005% among 220,000; HSV replication augmentation in cells, fold increase; maximum fold increase;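 active means peak rise of 1.5-fold or more in the series; tested in PC3 cells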;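 further: first round at 10 µM; read as green reporter fluorescence; hits show the peak of a series up to 25 µM; 1 = signal of infected wells without compound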
INS promoter inh: TRM-6 insulin promoter activity inhibition; TRM-6 cells (human fetal islet line), insulin promoter-eGFP reporter, imaging; reporter expression induced with tamoxifen; inhibition, % at 2 µM; hit rate 0.9% among 130,000; AID 1273;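 active means inhibition above the mean plus 3 SD, with well images judged a real hit on visual review, cut at about 60% in these data, passing the limit was not always enough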
GALR2 ag: GALR2 (human) receptor agonism | activation, %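 (tested at 5 µM)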 | hit rate 0.48% among 140,000 | O43603 | GALR2-expressing cells, agonist activation read-out;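 active means above mean plus 3 SD of all compounds, about 5% in these data, not always enough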;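 further: 0% = vehicle buffer wells and 100% = reference agonist at full effect; tested in CHO reporter cells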
Target sequence (O43603 whole entry, looked up): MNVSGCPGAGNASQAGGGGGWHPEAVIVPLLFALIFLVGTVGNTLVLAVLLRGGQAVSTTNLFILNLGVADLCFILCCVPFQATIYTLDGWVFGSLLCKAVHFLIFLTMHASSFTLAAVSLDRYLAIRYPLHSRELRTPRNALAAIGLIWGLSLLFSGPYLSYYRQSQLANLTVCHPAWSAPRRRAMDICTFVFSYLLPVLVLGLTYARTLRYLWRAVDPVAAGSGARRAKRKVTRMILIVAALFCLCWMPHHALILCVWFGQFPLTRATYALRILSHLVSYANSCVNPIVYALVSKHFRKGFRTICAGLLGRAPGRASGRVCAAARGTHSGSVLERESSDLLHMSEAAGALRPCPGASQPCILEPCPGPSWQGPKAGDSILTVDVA
RGS16-Gao: RGS16-Galphao interaction regulator (human). O15492+P09471. bead-based flow cytometry RGS16-Galphao binding, fluorescence; actives lie on both sides. binding response (% of control), % at 10 µM. hit rate 0.38% among 220,000. AID 1441;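 active means below 25% or above 175%, edge rows of some plates excepted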;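 further: Galphao activated by GDP with aluminum fluoride before binding; 100% = wells without compound and 0% = beads without RGS; some results beyond the cut were filed as inactive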
Target sequence (O15492 whole entry, looked up): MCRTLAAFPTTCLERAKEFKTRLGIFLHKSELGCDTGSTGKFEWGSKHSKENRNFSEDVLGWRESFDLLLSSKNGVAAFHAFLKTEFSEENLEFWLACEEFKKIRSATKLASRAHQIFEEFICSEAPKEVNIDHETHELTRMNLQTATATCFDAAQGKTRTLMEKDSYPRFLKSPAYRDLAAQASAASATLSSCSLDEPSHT
Target sequence (P09471 whole entry, looked up): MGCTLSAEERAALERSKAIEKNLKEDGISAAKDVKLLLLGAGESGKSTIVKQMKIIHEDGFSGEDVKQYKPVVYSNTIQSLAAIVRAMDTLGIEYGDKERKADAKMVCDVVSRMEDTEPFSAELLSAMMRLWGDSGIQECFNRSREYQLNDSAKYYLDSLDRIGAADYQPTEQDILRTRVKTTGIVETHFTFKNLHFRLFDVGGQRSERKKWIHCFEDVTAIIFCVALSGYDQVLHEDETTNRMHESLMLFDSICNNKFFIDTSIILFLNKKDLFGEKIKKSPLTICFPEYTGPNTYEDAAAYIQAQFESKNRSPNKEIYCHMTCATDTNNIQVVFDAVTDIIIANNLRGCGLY
PKD1 kinase inh: PKD1 (human) kinase inhibition | Q15139 | PKD1 kinase fluorescence polarization assay | inhibition, %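 (about 10 µM by stock and volumes)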 | hit rate 0.056% among 200,000 | AID 797;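 active means inhibition of 50% or more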;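 further: controls were vehicle for no effect and a reference inhibitor for full effect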
INS promoter inh cell count: further read-out of INS promoter inh, marked with its call; normalized cell count, %; measured here: cell count, toxicity; reference of the scale not given here;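 cells exposed to compound for 48 h; stained nuclei by imaging scaled within each plate; lower means fewer cells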
HSV replic up primary fold: further read-out of HSV replic up, marked with its call; fold increase; compound at 10 µM; measured here: primary screen fold increase 10 uM; tested in PC3 cells;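 GFP signal in the first replicate; 1 = infected wells without compound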
* marks the source's active call; other numbers are inactive results; i = inactive; x = not tested or not shown. Rows were taken by chance, and some 1.1% of all compounds hit somewhere here.

item | canonical_smiles | HSV replic up | HSV replic up primary fold | INS promoter inh | INS promoter inh cell count
1 | c1ccc(-c2nnc(SCc3nc4ccccc4[nH]3)n2Cc2ccco2)cc1 | i | 0.99 | -26 | 66
2 | Cc1onc(-c2ccccc2)c1C(=O)N1CCC(C)CC1 | i | 0.98 | -14 | 111
3 | CCN(CC(=O)Nc1cc(Cl)ccc1OC)CC(=O)NC1CCS(=O)(=O)C1 (centres undefined) | i | 0.87 | x | x
4 | C#CCOc1nc2c(c(=O)n(C)c(=O)n2C)n1Cc1ccccc1 | i | 0.72 | x | x
5 | CC(OC(=O)c1cccc(N2C(=O)c3ccccc3C2=O)c1)C(=O)Nc1ccc(N(C)C)cc1 (centres undefined) | i | 0.86 | -19 | 121
6 | CCc1ccc(-c2ccc(SCC(=O)NCC3CCCO3)nn2)cc1 (centres undefined) | i | 1.1 | -89 | 79
7 | CC1CCCCN1C(=O)COC(=O)/C=C/c1ccc2ccccc2n1 (centres undefined) | i | 0.77 | -150 | 84
8 | Cc1oc(-c2ccc(Cl)cc2)nc1CN1CCCC(C(=O)N2CCN(C(=O)c3ccco3)CC2)C1 (centres undefined) | i | 1.2 | x | x

item | GALR2 ag | RGS16-Gao | PKD1 kinase inh
1 | -2.9 | 99 | -3
2 | -2.8 | 47 | -9
3 | x | 98 | x
4 | x | 105 | x
5 | 1.2 | 105 | -7
6 | x | 102 | 1
7 | x | 101 | -2
8 | -2.5 | 110 | -14

(listing goes on)
item | canonical_smiles | HSV replic up | HSV replic up primary fold | INS promoter inh | INS promoter inh cell count
9 | Cc1ccc2cccc(OCC(=O)N3CC(C)CC(C)C3)c2n1 (centres undefined) | i | 1.1 | -209 | 18
10 | Cc1ccc(CNC(=O)CCc2ccc(S(=O)(=O)NCC(C)C)cc2)cc1 | i | 1.2 | x | x
11 | Cc1nc(NCC2CC2)c2nnn(Cc3ccccc3)c2n1 | i | 0.94 | x | x
12 | Cc1csc(SCc2ccc(C(=O)O)cc2)n1 | i | 0.98 | 22 | 104
13 | NC(=O)COC(=O)/C=C/c1ccc(S(=O)(=O)N2CCCCCC2)cc1 | i | 0.93 | x | x
14 | CCOc1ccccc1Nc1nc2ccccc2[nH]1 | i | 0.85 | 71 | 120
15 | c1ccc(CSc2ncnc3c2sc2nc(N4CCOCC4)c4c(c23)CCCC4)cc1 | i | 0.97 | 13 | 98
16 | O=C(O)CNS(=O)(=O)/C=C/c1ccccc1 | i | 1.1 | 25 | 110

item | GALR2 ag | RGS16-Gao | PKD1 kinase inh
9 | x | 107 | 2
10 | x | 92 | -3
11 | x | 108 | -6
12 | -2.5 | 108 | -4
13 | x | 98 | -2
14 | -1.6 | 101 | -4
15 | -1.0 | 104 | -12
16 | x | 96 | -6

Later entries.
item | canonical_smiles | HSV replic up | HSV replic up primary fold | INS promoter inh | INS promoter inh cell count
17 | COCCSc1ccccc1C(=O)Nc1nnc(C)s1 | i | 0.97 | -9 | 143
18 | Nc1nc(SCC(=O)N2CCCc3ccccc32)[nH]c(=O)c1-c1ccccc1 | i | 1.1 | 10 | 61
19 | CCn1ncc(Br)c1C(=O)Nc1sc2c(c1C(=O)OC)CCC2 | i | 0.87 | 17 | 78
20 | Cn1nc(C(=O)Nc2sccc2C(N)=O)ccc1=O | i | 0.85 | 42 | 112
21 | O=C(CSCc1ccc(Cl)cc1)NN=C1CCCCCC1 | i | 1 | -10 | 48
22 | CCN1CCN(C(=O)c2ccc(Sc3ccccc3Cl)c([N+](=O)[O-])c2)CC1 | i | 0.68 | -27 | 118
23 | CN(C)C(=O)N1CCCC(C(=O)NCCc2ccccc2)C1 (centres undefined) | i | 1 | -17 | 57
24 | Cc1cc(C)nc(N2CCN(c3nnnn3-c3ccccc3)CC2)n1 | i | 0.98 | x | x

item | GALR2 ag | RGS16-Gao | PKD1 kinase inh
17 | -1.4 | 100 | 3
18 | -2.9 | 60 | 4
19 | 0.1 | x | 3
20 | -2.4 | 120 | 5
21 | -2.0 | 106 | -7
22 | -1.4 | 95 | -14
23 | -1.2 | 101 | -6
24 | -0.8 | 101 | 4

Compound profiles (already shown):
Record of CCn1ncc(Br)c1C(=O)Nc1sc2c(c1C(=O)OC)CCC2 : HSV replic up = i; HSV replic up primary fold = 0.87; INS promoter inh = 17; INS promoter inh cell count = 78; GALR2 ag = 0.1; RGS16-Gao = x; PKD1 kinase inh = 3
Record of O=C(CSCc1ccc(Cl)cc1)NN=C1CCCCCC1 : HSV replic up = i; HSV replic up primary fold = 1; INS promoter inh = -10; INS promoter inh cell count = 48; GALR2 ag = -2.0; RGS16-Gao = 106; PKD1 kinase inh = -7

Next section:
item | canonical_smiles | HSV replic up | HSV replic up primary fold | INS promoter inh | INS promoter inh cell count
25 | COc1ccc(C)cc1Cn1c(S(C)(=O)=O)nc2ccccc21 | i | 0.93 | -46 | 67
26 | CC1CCN(C(=O)COc2ccccc2F)CC1 | i | 1 | x | x
27 | CC(=O)ON1C(C)(C)Cc2noc(N)c2C1(C)C | i | 0.93 | 26 | 100
28 | CCCCNc1nc(N)ncc1[N+](=O)[O-] | i | 1 | x | x
29 | CS(=O)(=O)N1Cc2ccccc2CC1C(=O)OCC(=O)Nc1ccc2ccccc2c1 (centres undefined) | i | 1.1 | -5 | 110
30 | COc1cccc(C2C(C#N)=C(N)N(c3ncn[nH]3)C3=C2C(=O)CCC3)c1 (centres undefined) | i | 1 | 27 | 93
31 | CCc1cccc(C)c1NC(=S)N1CCCCC1c1cccnc1 (centres undefined) | i | 0.92 | x | x
32 | Cc1ccccc1C(=O)Nc1ccccc1Sc1ccccc1 | i | 0.93 | x | x

item | GALR2 ag | RGS16-Gao | PKD1 kinase inh
25 | -1.3 | 103 | 4
26 | -1.1 | 103 | -8
27 | -2.1 | 104 | -4
28 | x | 89 | x
29 | -3.3 | 99 | -4
30 | -0.5 | 108 | 1
31 | x | 102 | x
32 | -1.8 | 36 | 3

Two records drawn at random from the list so far:
item | canonical_smiles | HSV replic up | HSV replic up primary fold | INS promoter inh | INS promoter inh cell count
27 | CC(=O)ON1C(C)(C)Cc2noc(N)c2C1(C)C | i | 0.93 | 26 | 100
29 | CS(=O)(=O)N1Cc2ccccc2CC1C(=O)OCC(=O)Nc1ccc2ccccc2c1 (centres undefined) | i | 1.1 | -5 | 110

item | GALR2 ag | RGS16-Gao | PKD1 kinase inh
27 | -2.1 | 104 | -4
29 | -3.3 | 99 | -4

(cont.)
item | canonical_smiles | HSV replic up | HSV replic up primary fold | INS promoter inh | INS promoter inh cell count
33 | O=C(c1ccc(S(=O)(=O)Nc2ccc(F)cc2)cc1)N1CCN(C(=O)c2ccco2)CC1 | i | 1.1 | -29 | 132
34 | CC(C)(C)c1ccc(C(=O)NCC(=O)OCC(=O)Nc2ccccc2[N+](=O)[O-])cc1 | i | 1.1 | 39 | 65
35 | COc1cc(/C=C(\C#N)C(=O)NCC2CCCO2)ccc1OCC(N)=O (centres undefined) | i | 1 | x | x
36 | CC(=O)CC(=O)Nc1ccc(C(N)=O)cc1 | i | 1.1 | -7 | 110
37 | COc1ccc(-n2c(CCc3ccccc3)nnc2SCC(=O)NCc2ccccc2)cc1 | i | 1 | -34 | 101
38 | Cc1ccc(C(=O)NC(=S)Nc2ccccc2C(F)(F)F)cc1C | i | 1.1 | -23 | 139
39 | CN1C(=O)/C(=N/OC(=O)c2ccccc2Br)c2ccccc21 | i | 1 | -7 | 106
40 | COc1ccccc1CNC(=O)N/C=C/c1ccc(Cl)cc1 | i | 1.1 | -82 | 151

item | GALR2 ag | RGS16-Gao | PKD1 kinase inh
33 | -0.6 | 102 | 1
34 | -0.9 | 102 | 7
35 | x | 110 | -6
36 | x | 98 | 7
37 | 2.4 | 104 | -12
38 | -1.7 | 108 | -24
39 | x | 93 | 1
40 | x | 109 | 0

Other compounds follow:
item | canonical_smiles | HSV replic up | HSV replic up primary fold | INS promoter inh | INS promoter inh cell count
41 | CN(c1cccc(NC(=O)c2ccc(C(C)(C)C)cc2)c1)S(C)(=O)=O | i | 0.7 | x | x
42 | C=CCN1C(=O)C(Cc2ccccc2Cl)SC1=Nc1ccc(C(=O)O)cc1 (centres undefined) | i | 1.1 | x | x
43 | C[C@H](NC(=O)NCc1ccc(F)cc1)C(=O)O | i | 0.91 | 14 | 92
44 | S=C1SCN(Cc2cccnc2)CN1Cc1ccccc1 | i | 0.81 | 25 | 194
45 | CCOc1ccc(CC(=O)C2=C(N3CCOCC3)CC(C)(C)CC2=O)cc1OCC | i | 0.97 | -6 | 88
46 | Cc1c(NC(=O)CN2c3cccc4cccc(c34)S2(=O)=O)c(=O)n(-c2ccccc2)n1C | i | 0.95 | x | x
47 | C=CCn1c(CCC(=O)Nc2ccc(C)c(Cl)c2)nnc1SCC(=O)Nc1ccccc1C | i | 0.92 | -17 | 70
48 | CCCc1cc(=O)n2[nH]c(NCc3cccs3)nc2n1 | i | 0.92 | -4 | 126

item | GALR2 ag | RGS16-Gao | PKD1 kinase inh
41 | x | 101 | 5
42 | x | 105 | x
43 | -2.4 | 101 | -6
44 | x | 98 | 12
45 | x | 106 | -4
46 | -0.2 | 107 | -2
47 | -1.3 | 102 | 4
48 | -1.6 | 101 | -2

The list goes on:
item | canonical_smiles | HSV replic up | HSV replic up primary fold | INS promoter inh | INS promoter inh cell count
49 | O=[N+]([O-])c1ccc2cn[nH]c2c1 | i | 0.48 | 57 | 103
50 | CC(C)C(=O)NC(c1ccccc1)c1cc([N+](=O)[O-])c2cccnc2c1O (centres undefined) | i | 0.86 | -87 | 102
51 | COc1ccc(-n2nc3cc(C)c(NC(C)=O)cc3n2)cc1 | i | 0.82 | x | x
52 | Cn1c(=O)c2ncn(CC(=O)O)c2n(C)c1=O | i | 0.99 | x | x
53 | CCCCNC(=S)N(C)N=C1CCC(c2ccccc2)CC1 (centres undefined) | i | 0.99 | 18 | 124
54 | Cc1cc(=O)n2cccc(O)c2n1 | i | 0.92 | x | x
55 | Cc1cc(C(=O)Nc2c(C)n(C)n(-c3ccccc3)c2=O)c2ccccc2n1 | i | 0.94 | 43 | 113
56 | CC(C)(O)C#Cc1ccc(C(=O)NCc2ccccc2)s1 | i | 0.76 | -28 | 121

item | GALR2 ag | RGS16-Gao | PKD1 kinase inh
49 | -1.7 | 97 | -7
50 | -2.3 | 88 | -7
51 | x | 99 | 0
52 | x | 96 | x
53 | x | 111 | -10
54 | x | 110 | -8
55 | -2.1 | 109 | -2
56 | -1.2 | x | 1

Overlap with the part before: two compounds, then new ones.
item | canonical_smiles | HSV replic up | HSV replic up primary fold | INS promoter inh | INS promoter inh cell count
55 | Cc1cc(C(=O)Nc2c(C)n(C)n(-c3ccccc3)c2=O)c2ccccc2n1 | i | 0.94 | 43 | 113
56 | CC(C)(O)C#Cc1ccc(C(=O)NCc2ccccc2)s1 | i | 0.76 | -28 | 121
57 | COc1ccc(OCC(=O)NNC(=O)c2cccs2)cc1 | i | 0.96 | 4 | 121
58 | CCC(CC)n1[nH]c(=O)cc1N | i | 0.8 | -100 | 108
59 | Cc1cccc(OCCCSc2nc3ccc(C)cc3[nH]2)c1 | i | 0.69 | 0 | 67
60 | Cc1ccc(-c2[nH][nH]c(=O)c(=O)c2N=Nc2ccccc2)cc1 | i | 0.98 | x | x
61 | CCN1CCN(C(=O)CN(CCc2ccccc2)S(C)(=O)=O)CC1 | x | x | x | x
62 | COC(=O)c1ccccc1COn1c(=O)c(C)[n+]([O-])c2ccccc21 | i | 0.96 | -351 | 133
63 | O=C(CSc1nc2ccsc2c(=O)n1NC(=O)c1ccccc1)NCc1ccco1 | i | 0.94 | 29 | 138
64 | C=CCSc1ncnc2sc(C)c(C)c12 | i | 1 | 0 | 66

item | GALR2 ag | RGS16-Gao | PKD1 kinase inh
55 | -2.1 | 109 | -2
56 | -1.2 | x | 1
57 | -1.4 | 99 | -10
58 | -0.1 | 102 | -6
59 | -2.1 | 111 | 3
60 | x | 100 | x
61 | -1.3 | 104 | 1
62 | -2.9 | 98 | -5
63 | -2.4 | 100 | -7
64 | -0.7 | 37 | -11
